AF4-AF9 inh: inhibitors of human MLL-AF4/AF9 interaction. AlphaScreen, biotin-AF4 peptide binding to FLAG-AF9. AID 651704. inhibition, % at 10 µM. 350,000 compounds, 0.47% hits;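 active means every replicate reaching a set inhibition limit, whatever the replicate mean, cut at about 25% in these data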;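 further: 0% = plate neutral control median and 100% = total signal loss; the record names both 10 and 1 µM as test concentration; the first replicate is given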
Target sequence (P42568 whole entry, looked up): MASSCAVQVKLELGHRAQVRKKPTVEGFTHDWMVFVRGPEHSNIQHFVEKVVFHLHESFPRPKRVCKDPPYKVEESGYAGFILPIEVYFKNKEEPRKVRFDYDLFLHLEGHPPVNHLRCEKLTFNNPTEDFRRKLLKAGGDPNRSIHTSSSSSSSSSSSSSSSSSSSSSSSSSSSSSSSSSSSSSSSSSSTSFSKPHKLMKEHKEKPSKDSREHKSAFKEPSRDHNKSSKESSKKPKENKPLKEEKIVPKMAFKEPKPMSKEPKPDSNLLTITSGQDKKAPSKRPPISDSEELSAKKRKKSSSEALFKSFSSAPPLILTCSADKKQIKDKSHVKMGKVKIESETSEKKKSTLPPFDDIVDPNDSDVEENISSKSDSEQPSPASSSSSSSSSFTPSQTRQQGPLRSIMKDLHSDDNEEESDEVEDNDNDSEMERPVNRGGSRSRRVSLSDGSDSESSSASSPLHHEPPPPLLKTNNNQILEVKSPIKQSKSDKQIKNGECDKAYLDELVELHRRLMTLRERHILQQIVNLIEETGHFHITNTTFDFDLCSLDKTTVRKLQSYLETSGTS
FGF22 binding: binders of recombinant human FGF22 by thermal shift. Q9HCT0. SYPRO orange fluorescence; percent of sucrose octasulfate shift, DMSO zero. calls only at 9.99 µM. 340,000 compounds, 1.5% hits. AID 651658;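 active means melting point raised past a set limit in the mean and every replicate; three in four hits are not shown here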
Target sequence (Q9HCT0 whole entry, looked up): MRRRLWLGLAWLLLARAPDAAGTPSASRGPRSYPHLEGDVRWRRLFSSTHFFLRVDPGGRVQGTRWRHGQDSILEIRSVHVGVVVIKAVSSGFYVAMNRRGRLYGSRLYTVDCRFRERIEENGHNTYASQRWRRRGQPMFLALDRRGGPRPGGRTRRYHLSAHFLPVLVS
Ecoli rRNA inh: inhibits bacterial ribosomal RNA function over humanized ribosomes. E. coli WT GFP vs humanized-ribosome RFP mutants, fluorescence, 24 h; stronger effect = lower value; DMSO median 0, no signal -100. GFP signal change (wild-type ribosome), % (test concentration not listed). 350,000 compounds, 1.6% hits. AID 720706;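 active means significant combined selectivity score with lowered wild-type GFP, culture density cut under 30%, mutant RFP and density less affected; inactive means any of these conditions unmet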; further: one replicate is shown; some compounds called inactive have numbers as strong as hits
Ecoli rRNA inh OD600: further read-out of Ecoli rRNA inh, marked with its call; OD600 change, %; measured here: OD600 growth;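 optical density of the mix in the first replicate; 0 = DMSO median and -100 = no signal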
Ecoli rRNA inh RFP: also measured in Ecoli rRNA inh; calls as there; RFP signal change, %; measured here: RFP humanized mutant strains;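 first replicate; 0 = DMSO median and -100 = no signal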
* marks the source's active call; other numbers are inactive results; i = inactive; & = joins results of further samples.

no.	AF4-AF9 inh	FGF22 binding	Ecoli rRNA inh	Ecoli rRNA inh OD600	Ecoli rRNA inh RFP	SMILES
1	-0.1	i	-1	3	-3.1	COc1ccc(CN(C)C[C@@H]2Oc3ccc(NS(=O)(=O)c4ccccc4)cc3C(=O)N([C@H](C)CO)C[C@@H]2C)cc1
2	3.2	i	-25	-53	-3.6	CN1OC[C@@H]2CN(C(=S)NCCc3ccccc3)[C@H](c3ccccc3Br)C[C@@H]21
3	-2.5	i	8	12	0.2	C[C@H](CO)N1C[C@H](C)[C@H](CN(C)S(C)(=O)=O)Oc2ncc(C#Cc3cccc(F)c3)cc2C1=O
4	-0.3	i	3	5	-2.1	C[C@@H]1CN([C@H](C)CO)C(=O)Cc2cc(NS(=O)(=O)c3cn(C)cn3)ccc2O[C@@H]1CN(C)S(C)(=O)=O
5	2.5	i	56	7	4.8	FC(F)(F)c1nc2nc(Cl)c(Cl)nc2n1CCCN1CCOCC1
6	-0.6	i	2	6	-0.1	C[C@@H]1CN([C@H](C)CO)C(=O)Cc2cc(NC(=O)Cc3ccccc3)ccc2O[C@H]1CN(C)Cc1ccc(Cl)c(Cl)c1
7	-2.2	i	-1	3	-5.9	O=C(NCC[C@H]1CC[C@@H](NC(=O)C2CCOCC2)[C@H](CO)O1)c1ccc(F)cc1
8	10	i	0	-9	3.3	CCS(=O)(=O)N1CCC2(CC1)CN(Cc1ccc3c(c1)OCO3)[C@@H](CO)c1c2c2ccc(OC)cc2n1C
9	-12	i	7	9	0.5	COCCNC(=O)C[C@H]1CC[C@@H]2[C@H](COC[C@H](O)CN2Cc2cccc(-c3ccncc3)c2)O1
10	-1.0	i	-1	-5	0.4	C[C@H](CO)N1C[C@H](C)[C@H](CN(C)Cc2ccc(Cl)c(Cl)c2)Oc2ccc(NC(=O)NC3CCCCC3)cc2CC1=O
11	-3.0	i	-1	3	-2.6	COc1ccc(CN(C)C[C@@H]2Oc3c(NC(=O)c4cnccn4)cccc3C(=O)N([C@@H](C)CO)C[C@H]2C)cc1
12	0.6	i	5	5	-2.1	CO[C@H]1CN(C)C(=O)c2ccc(NC(C)=O)cc2OC[C@@H](C)N(S(=O)(=O)c2cn(C)cn2)C[C@@H]1C
13	-0.9	i	1	4	-1.5	O=C(C[C@H]1C[C@@H]2c3cc(NS(=O)(=O)c4ccc(F)cc4)ccc3O[C@@H]2[C@H](CO)O1)NCc1ccccn1
14	0.9	i	-6	-6	1.5	CCCC#Cc1ccc2c(c1)O[C@H](CN(C)C(=O)c1ccccc1F)[C@H](C)CN([C@H](C)CO)S2(=O)=O
15	3.9	i	1	-9	0.9	CC(C)c1ccc(NC(=O)C2(C)Cc3c(-c4ccc(N(C)C)cc4)ccnc3O2)cc1 (centres undefined)
16	-7.2	i	-57	-79	-19	O=C(C[C@H]1CC[C@H]2[C@@H](COC[C@H](O)CN2C(=O)Nc2ccc(Cl)cc2)O1)NC1Cc2ccccc2C1
17	2.2	i	2	9	3.0	COC(=O)c1cc(=O)nc(NN=C(C)C)s1
18	-0.6	i	4	2	3.4	COc1ccc(S(=O)(=O)Nc2cccc3c2O[C@H](CN(C)S(=O)(=O)c2cn(C)cn2)[C@@H](C)CN([C@@H](C)CO)C3=O)cc1
19	-5.7	i	-5	-11	-1.6	Cc1noc(C)c1NC(=O)Nc1cccc2c1O[C@@H](CN(C)Cc1ccc(-c3ccccc3)cc1)[C@@H](C)CN([C@@H](C)CO)C2=O
20	4.8	i	5	3	2.6	COc1ccccc1C#Cc1cnc2c(c1)C(=O)N([C@H](C)CO)C[C@H](C)[C@H](CN(C)C)O2
21	-1.6	i	0	1	-1.2	CNC[C@@H]1Oc2ccc(NC(=O)Cn3cnnn3)cc2C(=O)N([C@H](C)CO)C[C@@H]1C
22	-2.0	i	-5	-2	-2.1	C[C@@H]1CN([C@@H](C)CO)C(=O)c2cc(NS(=O)(=O)c3ccc(Cl)cc3)ccc2O[C@@H](C)CCCCO[C@H]1CN(C)S(=O)(=O)c1cccs1
23	1.4	i	0	-12	0.5	C[C@H](CO)N1C[C@H](C)[C@@H](CN(C)C(=O)Nc2cccc3ccccc23)Oc2ccc(NC(=O)Nc3ccc(F)cc3)cc2CC1=O
24	-1.4	i	-9	-15	-0.5	CN1C(=O)c2cc(NC(=O)c3ccc(Cl)cc3)ccc2OC[C@H]2O[C@H](CC(=O)NCc3cccc(F)c3)CC[C@H]21
25	0.1	i	-2	-29	8.4	C[C@H]1CN([C@@H](C)CO)S(=O)(=O)c2ccc(C3=CCCC3)cc2O[C@@H]1CN(C)C(=O)c1ccccc1
26	-3.4	i	2	11	3.0	CCCNC(=O)N(C)C[C@H]1Oc2cc(C#C[C@@H](C)O)ccc2S(=O)(=O)N([C@@H](C)CO)C[C@@H]1C
27	-7.2	i	3	8	-2.8	CCCC(=O)Nc1c(-c2ccccc2)[nH][nH]c1=O
28	1.5	i	-10	-4	2.1	CN(C)C(=O)c1cccc(-c2ccc3c(c2)[C@H]2[C@H](CCN2C(=O)c2ccccc2)[C@@H](CO)N3C)c1
29	-4.0	i	2	8	-2.4	C[C@H]1CN([C@@H](C)CO)C(=O)c2cc(-c3ccccc3)cnc2O[C@H]1CN(C)Cc1ccccn1
30	1.2	i	-6	-4	11	COc1ccccc1CN1C[C@@H](C)[C@H](OC)CN(C)C(=O)c2ccc(NC(=O)Nc3ccccc3OC)cc2OC[C@H]1C
31	-2.3	i	7	12	-2.4	COc1ccccc1C(=O)N1CCN(C(=O)[C@H]2O[C@@H](n3cnc4c(N)ncnc43)[C@H](O)[C@@H]2O)CC1
32	5.4	i	-56	-71	-10	C[C@H]1CN([C@@H](C)CO)C(=O)Cc2cc(NC(=O)Nc3ccccc3)ccc2O[C@@H]1CN(C)Cc1ccccc1
33	-1.1	i	-38	-45	-8.7	CC1(C)CC(=O)C=C(c2n[nH]nc2C2=CCCCC2)C1
34	9.3	i	-43	-79	-11	Cc1ccc(OCCCN2CCC(C(O)(c3ccccc3)c3ccccc3)CC2)cc1
35	11	i	-10	-24	3.2	C[C@@H]1CN([C@@H](C)CO)C(=O)c2cc(N(C)C)ccc2O[C@H]1CN(C)Cc1ccc(Cl)c(Cl)c1
36	-2.1	i	4	4	0.0	C[C@H]1CCCCO[C@@H](CN(C)Cc2ccccc2)[C@@H](C)CN([C@@H](C)CO)C(=O)c2cc(NS(=O)(=O)c3cn(C)cn3)ccc2O1
37	-2.4	i	1	8	-0.8	C[C@@H]1CCCCO[C@H](CN(C)S(=O)(=O)c2cccs2)[C@@H](C)CN([C@H](C)CO)C(=O)c2cc(NC(=O)CCCCCC(=O)Nc3ccccc3N)ccc2O1
38	-0.6	i	3	5	-0.1	O=C(Nc1ccc2c(c1)[C@@H]1C[C@H](CC(=O)N3CCOCC3)O[C@H](CO)[C@@H]1O2)C1CCOCC1
39	0.2	i	2	-1	13	COc1ccccc1-c1ccc([C@H]2[C@@H](CO)N3CCCCN(C(=O)NC4CCCC4)C[C@@H]23)cc1
40	-1.6	i	0	-1	2.5	CCCNC(=O)N(C)C[C@@H]1Oc2cc(C#CCN(C)C)ccc2S(=O)(=O)N([C@@H](C)CO)C[C@H]1C

The last two compounds of the section before lead into the next:
no.	AF4-AF9 inh	FGF22 binding	Ecoli rRNA inh	Ecoli rRNA inh OD600	Ecoli rRNA inh RFP	SMILES
39	0.2	i	2	-1	13	COc1ccccc1-c1ccc([C@H]2[C@@H](CO)N3CCCCN(C(=O)NC4CCCC4)C[C@@H]23)cc1
40	-1.6	i	0	-1	2.5	CCCNC(=O)N(C)C[C@@H]1Oc2cc(C#CCN(C)C)ccc2S(=O)(=O)N([C@@H](C)CO)C[C@H]1C
41	-5.0	i	-1	1	-0.5	CC(C)CC#Cc1cnc2c(c1)C(=O)N([C@H](C)CO)C[C@H](C)[C@H](CN(C)S(=O)(=O)c1cn(C)cn1)O2
42	-1.7	i	2	5	-5.1	CCCNC(=O)N1CC2(C1)[C@H](c1ccccc1)[C@H](CO)N2C(=O)c1ccncc1
43	3.2	i	2	-4	-0.8	C[C@@H]1CN([C@H](C)CO)C(=O)c2cc(NS(=O)(=O)c3cn(C)cn3)ccc2O[C@@H]1CN(C)S(=O)(=O)c1ccc(Cl)cc1
44	-0.2	i	-11	-4	4.0	COc1cccc(S(=O)(=O)N[C@@H]2C=C[C@@H](CC(=O)NCc3ccc(Cl)cc3)O[C@H]2CO)c1
45	-0.3	i	5&3	2&-1	0.9&-0.8	CC(=O)N(C)C[C@@H]1OCc2ccccc2-c2c(n(C)c3ccccc23)C(=O)N([C@@H](C)CO)C[C@@H]1C
46	3.8	i	-5	-2	4.2	Cc1noc(C)c1S(=O)(=O)Nc1ccc2c(c1)C(=O)N([C@H](C)CO)C[C@@H](C)[C@@H](CN(C)S(=O)(=O)c1ccccc1)OCCCC[C@@H](C)O2
47	1.6	i	-13	-13	-5.3	CC1(C)OC(=O)C2=C(C[C@@H](C3CCCCC3)O[C@H]2c2ccc(F)cc2)O1
48	4.6	i	0	2	-0.9	C[C@H](CO)N1C[C@H](C)[C@@H](CN(C)C(=O)Nc2ccc3c(c2)OCO3)Oc2ncc(-c3ccccc3)cc2C1=O
49	-0.6	i	4	14	-2.5	C[C@H]1CN([C@@H](C)CO)S(=O)(=O)c2ccc(C#Cc3cccc(F)c3)cc2O[C@H]1CN(C)C(=O)NC1CCCCC1
50	0.2	i	1	1	-1.7	CO[C@@H]1CN(C)C(=O)c2cc(NC(=O)c3cc(C)on3)ccc2OC[C@@H](C)N(C(=O)C2CC2)C[C@H]1C
51	-3.3	i	14	20	-1.5	O=C(O)Cn1ccc2cc(S(=O)(=O)N3CCCCC3)ccc21
52	-5.1	i	1	0	1.6	C[C@H]1CCCCO[C@@H](CN(C)S(=O)(=O)c2ccc(F)cc2)[C@@H](C)CN([C@@H](C)CO)C(=O)c2cc(NC(=O)CCC(F)(F)F)ccc2O1
53	0.8&-1.8	i	5&-6	13&5	0.9&-1.2	COc1cccc(NC(=O)N(C)C[C@H]2Oc3ncc(Br)cc3C(=O)N([C@H](C)CO)C[C@H]2C)c1
54	-0.2	i	2	0	-1.5	CO[C@H]1CN(C)C(=O)c2ccc(NS(C)(=O)=O)cc2OC[C@@H](C)N(C(=O)C2CCOCC2)C[C@H]1C
55	-0.6	i	-6	-5	4.3	O=C(Nc1ccc(C(F)(F)F)cc1)N[C@H]1CC[C@H](CCNC(=O)c2ccccc2F)O[C@@H]1CO
56	0.3	i	5	10	-6.7	CCC(=O)N1CC[C@@H]2[C@@H](CO)Nc3ccc(-c4ccc(C(=O)N(C)C)cc4)cc3[C@@H]21
57	0.5	i	-3	-6	0.4	COCC(=O)Nc1ccc2c(c1)OC[C@H](C)N(Cc1cc(F)ccc1F)C[C@H](C)[C@@H](OC)CN(C)C2=O
58	1.4	i	-1	3	-2.8	C[C@H]1CN([C@@H](C)CO)S(=O)(=O)c2ccc(C#CCN(C)C)cc2O[C@@H]1CN(C)Cc1cccnc1
59	1.0	i	-3	5	-1.1	C[C@@H]1CN([C@H](C)CO)C(=O)c2cc(/C=C/c3ccccc3)cnc2O[C@H]1CN(C)C(=O)c1ccncc1
60	0.9&-1.0	i	0&2	8&1	-3.7&2.7	COc1ccc(NC(=O)N(C)C[C@H]2OCc3cnnn3CCCC(=O)N([C@@H](C)CO)C[C@H]2C)cc1

Entries of single compounds, quoted from the list. Screens in order: AF4-AF9 inh	FGF22 binding	Ecoli rRNA inh	Ecoli rRNA inh OD600	Ecoli rRNA inh RFP
Results for C[C@H]1CN([C@@H](C)CO)S(=O)(=O)c2ccc(C#Cc3cccc(F)c3)cc2O[C@H]1CN(C)C(=O)NC1CCCCC1 : -0.6	i	4	14	-2.5
Results for O=C(O)Cn1ccc2cc(S(=O)(=O)N3CCCCC3)ccc21 : -3.3	i	14	20	-1.5
Results for CC1(C)OC(=O)C2=C(C[C@@H](C3CCCCC3)O[C@H]2c2ccc(F)cc2)O1 : 1.6	i	-13	-13	-5.3
Results for COc1cccc(S(=O)(=O)N[C@@H]2C=C[C@@H](CC(=O)NCc3ccc(Cl)cc3)O[C@H]2CO)c1 : -0.2	i	-11	-4	4.0

(cont.)
no.	AF4-AF9 inh	FGF22 binding	Ecoli rRNA inh	Ecoli rRNA inh OD600	Ecoli rRNA inh RFP	SMILES
61	-3.8	i	2	-8	-2.2	COc1ccc(CNC(=O)c2sc(=O)n(Cc3ccc(C)cc3)c2C)cc1
62	-1.9&0.1&-0.4	i	8&1	1&0	1.7&6.6	C[C@@H]1CN([C@H](C)CO)C(=O)CCCn2nncc2CO[C@@H]1CN(C)C(=O)OCc1ccccc1
63	-1.8	i	1	19	0.9	CN(C)C(=O)c1ccc(-c2ccc([C@H]3[C@@H](C#N)N(C(=O)Cc4ccccn4)[C@@H]3CO)cc2)cc1
64	5.5	i	-61	-73	-17	CCCCCCCCCCCCCCCC[N+](C)(C)Cc1ccc(F)cc1

From PubChem

A portion of the library (hit frequency here may not be typical).
